TRPV1 potentiator – HTS Assay for Compounds that Act as Potentiators of the Vanilloid Receptor 1; TRPV1-expressing cells, Fluo-8 calcium influx, capsaicin EC20 potentiation; host cell line not named in the record; control for the full effect not named in the record; potentiation, % at 8.33 µM; 320,000 compounds, 0.02% hits; AID 540277, 2011; active means potentiation above 80%; inconclusive means 30% to 80%; inactive means below 30%; also: 0% is about no effect
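Cells expressing TRPV1 were dye-loaded with Fluo-8 and read kinetically: 10 s baseline, 3 min after compound (agonist portion), then 2 min after EC20 capsaicin (allosteric enhancer portion). Calcium-bound dye fluorescence at 480/520 nm.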
Sfp PPTase inh – qHTS Assay for Inhibitors of Bacillus subtilis Sfp phosphopantetheinyl transferase (PPTase); 310,000 compounds, 3.5% hits; 4'-phosphopantetheinyl transferase ffp (Bacillus subtilis), Q9F4F7; Potency, µM, for the others: max response, negative = inhibition, usual class: inhibitors; Biochemical Sfp PPTase activity, qHTS; AID 1490, 2009; active = well fitted inhibition curve with a large enough effect; inconclusive = small, poorly fitted or top-dose-only effect, or another doubt; inactive = no such curve, though single readings can be large or run the other way;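 also: the enzyme is Sfp with the accession as filed and its product quenches rhodamine fluorescence; potency is read from the fitted curve at half-maximal effect; 0% = enzyme reaction without inhibitor and -100% = no enzyme wells; top concentration of the series not given in the record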
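With Hepes-Na pH 7.6 buffer containing 10 mM MgCl2, Sfp (15 nM) modified BHQ-2-YbbR (12.5 uM) using rhodamine-CoA (5 uM). Two reads 30 minutes apart at 525/598 nm yielded each well's rate.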
ClpP mod – qHTS Assay for Activators of ClpP; ATP-dependent Clp protease proteolytic subunit (Bacillus subtilis (strain 168)), P80244; purified B. subtilis ClpP, FRET peptide cleavage, 20 min; Potency, µM (top dose mostly 57.5 µM), for the others: top-dose activity change, negative = active; 340,000 compounds, 1.9% hits; active = well fitted falling curve with a large enough effect; inconclusive = small, poorly fitted or top-dose-only effect; inactive = no such curve, though single readings can be large or run the other way; also: potency is read from the fitted curve at half-maximal effect; the source files actives as falling curves though it sought activators and does not explain the sign; nearly all actives have a fitted effect of over 65% in size; many hits overshoot -100%
Target sequence (P80244 whole entry, looked up): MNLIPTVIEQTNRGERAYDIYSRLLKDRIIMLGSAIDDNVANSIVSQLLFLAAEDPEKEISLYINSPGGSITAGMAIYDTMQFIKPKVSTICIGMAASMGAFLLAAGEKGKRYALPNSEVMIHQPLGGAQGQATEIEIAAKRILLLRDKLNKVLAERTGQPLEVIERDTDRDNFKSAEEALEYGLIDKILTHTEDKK
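ClpP 10 microg/mL final, pH 8 Tris/KCl buffer with BSA, glycerol, Tween-20; compound pinned in; FRET-FV substrate; RT 20 min; Ex320/Em430; ΔFRET vs ADEP 5.8 microM, DMSO, no enzyme.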
Menin-MLL FL inh – qHTS Assay for Inhibitors Targeting the Menin-MLL Interaction in MLL Related Leukemias: Competition With Fluorescein Labeled MLL-derived Peptide; FP activity change, % at 61.4 µM; 290,000 tested, under 10 active; Fluorescence polarization, fluorescein-MLL peptide displacement from menin; inconclusive = falling polarisation curve, or a change in total fluorescence; inactive = total fluorescence flat and polarisation flat or rising; no compound was filed as active; the % refers to the polarisation; negative = inhibition;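 also: % of control where 0% means no effect; inhibitors lower the polarisation; unlabelled MLL peptide was the positive control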
TRPML1 agonist – qHTS for Agonists of the Human Mucolipin Transient Receptor Potential 1 (TRPML1) | Mucolipin-1 (Homo sapiens), Q9GZU1 | TRPML1-expressing cells, Ca2+ dye fluorescence, FDSS; host cell line not named in the record; reference of the full effect not given here | activation, % (test concentration not listed) | 410,000 compounds, 0.12% hits | AID 624414, 2012; in the data active = activation above about 50%; inconclusive = about 30% to 50%; inactive = below about 30%; also: 0% is about no effect; the text of the record puts the active cut at 80%
Target sequence (Q9GZU1 whole entry, looked up): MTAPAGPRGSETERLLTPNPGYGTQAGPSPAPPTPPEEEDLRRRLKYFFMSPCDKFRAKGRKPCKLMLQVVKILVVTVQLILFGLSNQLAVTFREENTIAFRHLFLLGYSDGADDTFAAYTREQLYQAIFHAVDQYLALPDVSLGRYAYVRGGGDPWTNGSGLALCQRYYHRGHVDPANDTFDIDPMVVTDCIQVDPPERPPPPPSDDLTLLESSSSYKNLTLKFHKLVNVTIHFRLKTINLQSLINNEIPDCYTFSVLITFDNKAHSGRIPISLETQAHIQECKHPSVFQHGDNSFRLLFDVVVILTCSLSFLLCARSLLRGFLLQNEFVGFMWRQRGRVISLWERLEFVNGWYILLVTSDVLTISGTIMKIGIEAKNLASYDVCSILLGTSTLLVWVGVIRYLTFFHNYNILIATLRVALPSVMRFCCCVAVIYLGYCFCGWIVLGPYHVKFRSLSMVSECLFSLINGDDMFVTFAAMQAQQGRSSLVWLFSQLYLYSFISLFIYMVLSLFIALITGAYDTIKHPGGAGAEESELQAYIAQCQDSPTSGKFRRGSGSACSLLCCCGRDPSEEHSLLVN
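Cells: TRPML1-DL, 1X Tet inducer, ~16 h at 37 degrees C/5% CO2. Dye: ABD Ca8 no-wash + quencher, 45-90 min RT. Read: 10 s baseline, compound add, 110 s agonist phase; 54-4 EC80 (4uM final), 110 s antagonist phase.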
TRPML1 blocker – qHTS for Inhibitors of the Human Mucolipin Transient Receptor Potential 1 (TRPML1). TRPML1-inducible cells, Ca2+ dye fluorescence, FDSS; stronger effect = lower value; inhibition of EC80 agonist-evoked calcium signal. activity change, negative = inhibition, % (test concentration not listed). 390,000 compounds, 0.02% hits; in the data active means activity change below about -50%; inconclusive means about -30% to -50%; inactive means above about -30%;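 also: stimulus is agonist 54-4 at its EC80 concentration; % is scaled to controls: 0 for no effect and ±100 for the full control effect; compound concentration not given in the record; the text of the record puts the active cut at -80%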
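Tet-induced TRPML1-DL cells loaded with Ca8 no-wash calcium dye were read kinetically on FDSS. Compound addition was followed by EC80 agonist 54-4 (4 uM final); inhibition was read over 110 s.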
PINK1 expr mod – A Quantitative High throughput Screen to Identify Chemical Modulators of PINK1 Expression; PINK1 immunofluorescence, high-content cytometry, 24 h; Potency, µM (doses to about 76.6 µM), without a hit: at the top dose activation (PINK1 increase), actives largely listed as activators; 410,000 compounds, 0.2% hits; AID 624263, 2012; active = well fitted activation curve with a large enough effect; inconclusive = small, poorly fitted or top-dose-only effect; inactive = flat fitted curve, though single readings scatter; cell line not stated here;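 also: potency is read from the fitted curve at half-maximal effect; % of control where 0% means no effect; nearly all actives have a fitted effect of over 65% in size; a mitochondrial uncoupler was the plate control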
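Compound titrations (5 concentrations, 24 h) on a stable cell line; DMSO and CCCP controls. Endpoint: fixed-cell PINK1 immunofluorescence with mitochondrial, cell and nuclear markers, scanned by microplate cytometer.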
An asterisk follows results filed as active; ? = inconclusive; . = no result given; & = joins results of further samples; [ ] = dose if it differs, or a comment.

SMILES	TRPV1 potentiator	Sfp PPTase inh	ClpP mod	Menin-MLL FL inh	TRPML1 agonist	TRPML1 blocker	PINK1 expr mod
CC(=O)c1sc(NC(=O)CCS(=O)(=O)c2ccccc2)nc1C	-1	15%	-9.4%	2.0	-0.4	4	-1.3%
Cc1ccc2c(=O)n3c(nc2c1)C(Cc1ccc(O)cc1)NC(=O)c1cc2ccccc2cc1-3 (stereo not given)	.	.	-15%	.	0.7	32	9.0%
CCOc1c2ccc(C(=O)NCc3cc(C(F)(F)F)cc(C(F)(F)F)c3)cc2nn1C	4	19%	3.8%	1.4	0.8	-22	2.5%
ClC1(Cl)CC1CSc1nc2ccccc2[nH]1 (stereo not given)	-15	31%[activator]	.	-3.5	0.2	1	2.9%
CCOC(=O)N1CCN(C(=O)COC(=O)CSc2cc(C)c(Br)cc2C)CC1	-8	.	.	.	2.0	-3	2.6%
CC(=O)OC[C@@H]1CN(Cc2ccccc2)C[C@H](n2cnc3c(N(C)C(C)C)ncnc32)O1	.	.	-1.4%	.	-0.6	.	0.1%
CN(C)c1nn2c(-c3ccccc3)nnc2o1	.	.	0.6%	.	-0.5	9	-0.8%
Cc1csc(C2=C(O)CN(CCc3ccccc3)C2=N)n1	-33	13%	-1.6%	-1.8	-0.1	-4	.
Cc1ccc(C(=O)Oc2ccc3c(c2)ncn3C)cc1	4	9%	-0.4%	0.7	-0.2	9	.
CCCSc1ccc([C@@H]2[C@@H]3C(=O)N(CC)C(=O)[C@@H]3[C@]3(C(=O)OC)CCCCN23)cc1	.	.	-2.4%	.	0.7	20	13%
COc1ccc(-n2c(C(C)(C)C)csc2=Nc2c(C)n(C)n(-c3ccccc3)c2=O)cc1	-17	-2%	-1.5%	.	-0.2	13	1.1%
CC(=O)OC1CC[C@]2(C)C(=CCC3C4CCC(C(C)CCCC(C)C)[C@]4(C)CCC32)C1 (stereo not given in full)	.	8%	.	0.2	.	.	0.3%
Cc1ccc2c(c1)c1nnc(SCC(=O)Nc3cccc(Cl)c3C)nc1n2CC(=O)O	2	-22%	.	-5.5	-0.6	0	5.3%
COc1ccc2cc[nH]c2c1	6	17%	-7.8%	0.4	-1.6	7	0.1%
CCC(=O)N(Cc1cc2c(C)cc(C)cc2[nH]c1=O)C1CCCCC1	-1	2%	?	-1.0	5.2	-1	-2.0%
CN1C(=O)/C(=C/C=C2\SCCN2C)N(C)C1=S	-19	-12%	.	?	-0.7	-11	-0.6%
Cn1c(C(=O)N2CCN(Cc3ccccc3)CC2)cc2c(=O)n(C)c3ccccc3c21	-14	9%	-10.0%	0.3	0.7	23	1.5%
Cc1nn(C)c(Oc2ccc(Cl)cc2)c1C=O	22	2%	-2.1%	-3.3	-0.6	-7	-1.1%
COc1ccc(NC(=S)N2CCN(C(c3ccccc3)c3ccccc3)CC2)c(OC)c1	6	1%	.	0.9	3.8	-4	-0.2%
CCNC(=O)COc1cc(C)c(Br)c(C)c1	-15	17%	-0.6%	-8.7	-0.4	-15	-0.3%
Cc1cc(NCc2ccccc2Cl)n2nnnc2n1	5	8%	-1.8%	-0.5	0.0	4	1.5%
CCOc1ccc(N2CC(C(=O)Nc3cccc(S(=O)(=O)N4CCCCC4)c3)CC2=O)cc1 (stereo not given)	2	7%	.	-1.6	-0.3	15	1.8%
CCCCNC(=O)C1(C)CCCCN1Cc1ccc(-c2ccccc2)cc1 (stereo not given)	.	.	-13%	.	0.6	38	?
CC(=O)c1ccc(S(=O)(=O)NCCC(=O)OCC(=O)N2CCCC2=O)cc1	4	.	.	.	-0.5	-5	1.7%

Some of the entries so far, with two lines to a compound:
Screens in order – TRPV1 potentiator, Sfp PPTase inh, ClpP mod, Menin-MLL FL inh, TRPML1 agonist, TRPML1 blocker, PINK1 expr mod
CC(=O)OC[C@@H]1CN(Cc2ccccc2)C[C@H](n2cnc3c(N(C)C(C)C)ncnc32)O1
→ ., ., -1.4%, ., -0.6, ., 0.1%
CN(C)c1nn2c(-c3ccccc3)nnc2o1
→ ., ., 0.6%, ., -0.5, 9, -0.8%
Cc1csc(C2=C(O)CN(CCc3ccccc3)C2=N)n1
→ -33, 13%, -1.6%, -1.8, -0.1, -4, .

Continuation.
SMILES	TRPV1 potentiator	Sfp PPTase inh	ClpP mod	Menin-MLL FL inh	TRPML1 agonist	TRPML1 blocker	PINK1 expr mod
Cn1cnc2c1c(=O)n(Cc1cccc(Br)c1)c(=O)n2C	1	?	-4.6%	1.1	-1.2	-3	0.4%
COc1cc(OC)c(/C=C/c2nccc3ccccc23)c(OC)c1	.	.	-6.7%	.	?	.	?
c1cncc(CNc2ncnc3ccc(-c4cccnc4)cc23)c1	.	79µM*	.	-3.0	.	.	-0.4%&-0.5%
O=C(Nc1cccc(F)c1)N1CC=C(c2ccc(Cl)cc2)CC1	-7	-9%	-13%	9.4	1.2	21	0.5%
O=C(c1ccc2c(c1)N(Cc1cccc(Cl)c1)C(=O)c1ccccc1S2(=O)=O)N1CCN(c2ccccn2)CC1	-2	7%	-0.6%	-0.3	0.6	3	2.0%
CN(CC(=O)Nc1c(Cl)cccc1Cl)C(=O)CC1OC(=O)c2ccccc21 (stereo not given)	2	.	-1.6%	.	1.8	7	1.8%
CSc1cccc(NC(=S)N2CCC(c3ccccc3)C2)c1 (stereo not given)	8	12%	.	-0.4	1.5	19	3.2%
O=C(c1c[nH]c2ccc(F)cc2c1=O)N1CCCCCC1	-10	14%	-3.6%	5.4	0.8	2	1.2%[38.3 µM]
Cc1ccccc1NC(=O)NNC(=O)c1ccc2ccccc2c1O	12	24%	3.3%	-0.5	0.1	24	1.7%
CCOC(=O)c1cnc2c(Cl)cccc2c1NCCCN1CCOCC1	3	21%	-8.2%	-3.9	.	.	1.9%
COc1cccc(NC(=O)CN2C(=O)CSc3ccc(S(=O)(=O)N4CCOCC4)cc32)c1	-7	13%	-1.9%	.	1.2	-5	2.5%
CCc1nnc(NC(=O)CCc2ccc(C)o2)s1	6	7%	-0.6%	2.5	2.7	-2	2.4%[38.3 µM]
CCOCCn1ccc2c(OCC(=O)Nc3ccc(OC)cc3OC)cccc2c1=O	-2	.	-12%	.	0.0	-10	13%
COC(=O)c1ccccc1S(=O)(=O)N1CCC(C(=O)NCC2CCCO2)CC1 (stereo not given)	-22	.	0.5%	.	0.4	9	1.7%
CCOC(=O)c1cc(CC)sc1N1C(=O)CC(Sc2ncccc2C(=O)O)C1=O (stereo not given)	11	-20%	.	2.4	-0.4	1	-0.4%
O=C(O)C(Cc1ccccc1)N1C(=O)c2c(Cl)c(Cl)c(Cl)c(Cl)c2C1=O (stereo not given)	.	.	-1.1%	.	-0.3	12	-2.8%
COc1ccc(NC(=O)CN2C(=O)NC3(CCCCCCC3)C2=O)cc1	-9	.	-1.7%	.	0.0	-9	-0.5%
C[C@H](CO)N1C[C@H](C)[C@@H](CN(C)S(C)(=O)=O)Oc2ccc(NC(=O)CCN3CCOCC3)cc2C1=O	.	.	-3.6%	.	-0.3	17	2.2%
CCN1CCN(c2cc(=O)n(C3CCCCC3)c(=O)[nH]2)CC1	3	20%	-1.4%	0.6	0.4	14	4.8%
O=C1[C@@H]2Cc3c([nH]c4ccccc34)C(c3ccccc3)N2C(=O)CN1CCO (stereo not given in full)	12	5%	0.4%	-1.2	.	.	1.2%
COc1ccccc1NC(=O)c1nc(S(=O)(=O)Cc2ccccc2)ncc1Cl	-11	-12%	.	.	0.1	9	-1.6%
COC(=O)C1CCN(C(=O)c2ccccc2NC(C)=O)CC1	-10	5%	0.4%	0.0	0.0	41	-2.6%
Cc1ccc(-c2nn(-c3ccccc3)cc2CC(=S)N2CCOCC2)cc1	4	9%	-2.8%	-0.5	-1.1	16	-1.6%
O=C(Oc1cccc2c(O)cccc12)c1ccccc1Cl	.	.	.	.	0.2	-2	5.3%
O=C(NC(=S)Nc1ccccc1N1CCCC1)c1ccc([N+](=O)[O-])cc1	26	?	1.2%	0.0	3.2	10	-1.6%
Cc1ccc(C(c2nnnn2CC2CCCO2)N2CCN(c3cccc(C)c3C)CC2)cc1 (stereo not given)	-4	-5%	1.4%	0.0	?	-24	-1.2%
CN(C)CCC(O)(c1ccccc1)c1ccccc1	14	12%	-0.9%	13	0.6	-5	-3.3%[38.3 µM]
CCOc1ccc(CCNC(=O)CSc2n[nH]c(-c3ccccc3)n2)cc1OCC	.	.	0.8%	.	0.0	5	-0.7%
CCOC(=O)c1ccc(CN(Cc2ccccc2C)S(=O)(=O)c2ccc(F)c(C(=O)Nc3cccc(OC)c3)c2)cc1	.	.	-18%	.	1.0	-19	2.3%
Cc1cc(C(=O)Nc2ccc(Br)cc2F)n(-c2ccccc2)n1	7	0%	-0.8%	1.7	0.2	9	1.1%
CC(C)(C(=O)N1CCC1(C)C(=O)NS(=O)(=O)c1ccc(Br)cc1)c1ccccc1 (stereo not given)	.	.	0.8%	.	-0.3	.	0.3%
Cc1cccc(-n2c(N)cc(=O)[nH]c2=S)c1	-2	-4%	-3.7%	-1.1	-0.1	-24	1.6%
OCCC1CN(Cc2ccccc2O)CCN1CCc1ccccc1 (stereo not given)	-8	-6%	0.8%	0.3	-1.7	-11	3.4%
O=S(=O)(Nc1cccc(C(F)(F)F)c1)c1cccnc1	1	20%	-2.9%	3.0	0.2	1	2.2%
COc1ccccc1NC(=O)N1CCN(c2ccc(F)cc2)CC1	-22	6%	-3.7%	0.0	0.5	5	-0.6%
Cc1ccc(C(=O)N/C(=C/c2ccco2)C(=O)O)cc1	1	8%	0.6%	-0.1	0.8	-10	0.3%
NS(=O)(=O)c1cccc(NS(=O)(=O)c2ccc(/C=C/C(=O)OCC(=O)c3ccccc3)cc2)c1	4	29%	.	4.0	-0.6	-7	0.2%
Cc1cc(OC(=O)c2ccco2)c(Sc2ccccc2[N+](=O)[O-])c(=O)o1	-5	?	.	0.0	-0.7	-10	2.1%
